Screening results: PubChem BioAssay, several laboratories
MT1-MMP act inh = blocks activation of human MT1-MMP; P50281; HT1080 RFP-PRO-GFP cells, GFP/RFP ratio fluorescence, overnight; percent of plate control window, DMSO zero; GFP/RFP ratio change, % at 20 µM; 360,000 tested, 0.061% active; AID 651647;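 active means GFP/RFP ratio change of at least 30% with cell ATP level not reduced by more than half and red fluorescence within 50% of control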; further: strong numbers were not always called active
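Test system: HT1080 cells expressing an RFP-PRO-GFP fluorescent reporter construct / Compound dosing: single-point 20 µM compound, 1% DMSO / Schedule: cells overnight before dosing, compound overnight, 37 °C, 5% CO2 / Evaluation: GFP/RFP fluorescence ratio / Control set: DMSO and RFP-L50D-GFP cell wells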
PABP FP inh = PABP-poly(A) binding inhibition | P11940 | PABP-poly(A) RNA binding, fluorescence polarization | inhibition, % at 35 µM | 290,000 tested, 1% active | AID 2014;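 active means 50% or more with normal probe brightness, or confirmed in later tests; inconclusive means above 50% with abnormal brightness, or retests that disagree; inactive means below 50% or failed in later tests; about a fifth of its hits are not listed in these tables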;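 further: calls also rest on retests at 20 µM and on dose response follow-up; controls were probe without protein and protein plus probe with vehicle; some compounds called inactive have numbers as strong as hits; many hits fall short of the cut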
Target sequence (P11940 whole entry, looked up): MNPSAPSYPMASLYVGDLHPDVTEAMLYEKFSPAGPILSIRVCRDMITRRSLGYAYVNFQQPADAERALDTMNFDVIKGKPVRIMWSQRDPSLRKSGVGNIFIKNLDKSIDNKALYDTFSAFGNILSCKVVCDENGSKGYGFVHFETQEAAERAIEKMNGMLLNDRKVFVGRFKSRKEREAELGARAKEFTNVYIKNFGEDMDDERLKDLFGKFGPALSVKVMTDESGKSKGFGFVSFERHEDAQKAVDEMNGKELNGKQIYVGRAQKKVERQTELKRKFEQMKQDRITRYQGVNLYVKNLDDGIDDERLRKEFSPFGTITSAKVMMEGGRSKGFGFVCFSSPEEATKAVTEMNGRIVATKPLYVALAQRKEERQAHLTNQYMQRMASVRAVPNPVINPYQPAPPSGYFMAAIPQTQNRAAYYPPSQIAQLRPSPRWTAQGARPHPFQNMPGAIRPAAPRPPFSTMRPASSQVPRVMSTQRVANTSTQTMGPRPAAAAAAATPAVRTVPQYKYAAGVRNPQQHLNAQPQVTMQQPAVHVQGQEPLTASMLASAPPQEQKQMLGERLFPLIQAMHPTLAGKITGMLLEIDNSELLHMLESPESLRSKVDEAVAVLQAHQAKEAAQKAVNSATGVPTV
CSC inhib = cancer stem cell inhibition | cancer stem cell-like cells viability, luminescence | inhibition, % at 7.5 µM | 300,000 tested, 1.1% active | AID 2717;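 active means mean at 75% or more and at least half the replicates too; inconclusive means mean and replicates disagree; tested in HMLE shEcad cells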;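 further: 0% = median of negative and 100% = median of positive control wells; the first replicate is given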
Yeast UUG start = yeast start codon fidelity modulation; activity score, % at 18.7 µM; 350,000 tested, 0.13% active; S. cerevisiae UUG-firefly luciferase reporter, luminescence/redox ratio;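 active means replicate mean at a twofold rise or more, about +100% in these data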;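 further: firefly luciferase made from a UUG start codon reports start codon fidelity; reporter light over untreated wells divided by growth signal over untreated wells; some hits fall short of that in this replicate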
Rce1 inh = inhibitors of yeast Ras-converting enzyme. Q03530. yeast membranes, quenched prenylated peptide cleavage fluorescence. calls only. 290,000 tested, 0.27% active. AID 2563;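 active means fall in fluorescence gain of 50% or more versus controls, with final raw signal at or below 3038400; inconclusive means same 50% fall but final raw signal above 3038400; inactive means fall in fluorescence gain under 50%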;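 further: plate controls were neutral control wells for no effect and wells lacking membranes for full effect; tested at 10 µM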
eIF4H FP inh = inhibitors of RNA binding by human eIF4H | eIF4H fluorescence polarization binding assay | inhibition, % at 35 µM | 290,000 tested, 0.94% active | AID 2012;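 active means 50% or more with normal probe brightness, or confirmed in later tests; inconclusive means above 50% with abnormal brightness, or retests that disagree; inactive means below 50% or failed in later tests; about a fifth of its hits are not listed in these tables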;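 further: calls also rest on retests at 20 µM and on dose response follow-up; 0% = protein and probe with vehicle and 100% = probe without protein; strong numbers were not always called active; many hits fall short of the cut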
HIV Env fusion = HIV envelope-mediated fusion inhibition; HeLa-JRFL Env/CEM21 cell fusion, luciferase; inhibition, % at 12.3 µM; 360,000 tested, 1.1% active;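 active means mean replicate inhibition score of at least 50 and every replicate individually at or above 50; inconclusive means only one of the two criteria met; inactive means mean below 50 and not all replicates reaching 50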;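 further: 0% = plate neutral controls and 100% = maraviroc near 300 nM; one replicate is shown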
eIF4H FP inh retest = second read-out of eIF4H FP inh, no call of its own (marks repeat the call); inhibition, %; compound at 20 µM; confirmation average;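 mean of two retest wells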
PABP FP inh retest = further read-out of PABP FP inh, marked with its call; inhibition, %; compound at 20 µM; confirmation repeats;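 mean of two retest wells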
MT1-MMP act inh RFP = further read-out of MT1-MMP act inh, marked with its call; RFP signal change, %; measured here: RFP expression control read;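 0 = vehicle wells; hits needed this value within 50% of zero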
* = called active by the depositor; i = inactive; ? = inconclusive; . = no result given; & = joins results of further samples; [ ] = another dose, or the depositor's remark.

The opening two entries, to show the layout:
SMILES	MT1-MMP act inh	MT1-MMP act inh RFP	PABP FP inh	CSC inhib	Yeast UUG start	Rce1 inh	eIF4H FP inh	HIV Env fusion	others
COc1ccc(CN2C(=O)C(CC(C)C)Nc3ncnc(N4CCN(c5ccccc5)CC4)c32)cc1 (configuration not stated)	-9&-10	-7&-9	.	-8	-19&-24	i	.	4&24
CC(C)Sc1cc(N2CCCC2)nc(-c2ccccc2)n1	-1	-2	6	2	.	i	4	.

The listing, previewed entries included:
SMILES	MT1-MMP act inh	MT1-MMP act inh RFP	PABP FP inh	CSC inhib	Yeast UUG start	Rce1 inh	eIF4H FP inh	HIV Env fusion	others
COc1ccc(CN2C(=O)C(CC(C)C)Nc3ncnc(N4CCN(c5ccccc5)CC4)c32)cc1 (configuration not stated)	-9&-10	-7&-9	.	-8	-19&-24	i	.	4&24
CC(C)Sc1cc(N2CCCC2)nc(-c2ccccc2)n1	-1	-2	6	2	.	i	4	.
CC(C)(C)c1ccc(C(=O)NNc2cc(N3CCCCC3)nc(N3CCCCC3)n2)cc1	-12	-10	0	45	-3	i	-8	18
CCCNC(=O)C1(C)CCCN(Cc2cccn2C)C1 (configuration not stated)	1	3	.	.	-5	.	.	-17
COc1cc(C=O)ccc1OS(=O)(=O)c1ccccc1[N+](=O)[O-]	-4	-6	-10	-3	.	i	-13	2
c1ccc(CCNc2nc(-c3ccncc3)cs2)cc1	-3	-14	100	1	-17	i	-14	15	eIF4H FP inh retest=-5;PABP FP inh retest=10
CCN(CC)S(=O)(=O)c1cc(C(=O)NCCN2CCOCC2)ccc1Cl	0	-1	0	-8	6	i	-6	-15
Cc1ccccc1OCC(=O)Nc1c2c(nn1C(C)(C)C)CS(=O)(=O)C2	1	3	-4	13	-9	i	-9	3
COc1ccccc1C(=O)NC(=O)COC(=O)CCOc1ccc(C)cc1	0	1	.	-10	.	i	.	-2
Cc1ccc(S(=O)(=O)N/N=C/c2cccc(OC3CSC3)c2)cc1	-8	1	4	4	2	i	-8	15
OCC1(Cc2ccccc2F)CCCN(CC2CCCCC2)C1 (configuration not stated)	0	3	5	50	-14	i	-4	1
CN(CC(=O)NCCc1ccc(S(N)(=O)=O)cc1)CC(=O)Nc1cccc(F)c1	0	6	.	.	62	.	.	-51
COc1ccc(NS(=O)(=O)c2cc(NC(=O)CNC(=O)c3ccc(C)s3)ccc2Cl)cc1	1	-11	2	-10	.	i	4	.
Cc1cc(C)c2[nH]c(=O)c(=O)[nH]c2c1	-2	5	-10	-2	-16	i	10	-51
Cc1cc(C)c(/C=N/NC(N)=O)c(C)c1/C=N/NC(N)=O	9	4	18	-3	4	i	1	.
O=C(Nc1nnc(SCc2ccccc2)s1)C1=COCCO1	1	-7	.	-22	-26	i	.	-23
CC1=CCCC(C)(C)C1/C=C/C(C)=N/NC(=O)c1ccncc1 (configuration not stated)	3	-1	21	10	.	i	10	1
FC(F)(F)c1cc(C(F)(F)F)c2ccc(Oc3ccccc3)nc2n1	3	-1	-4	-1	0	i	1	-69
O=C(COc1ccccc1)Nc1ccc(OC(F)(F)C(F)F)c(NC(=O)COc2ccccc2)c1	2	6	2	1	-4	i	6	-2
O=C(NCC(c1ccco1)N1CCc2ccccc2C1)c1ccccc1Br (configuration not stated)	5	3	.	-4	10	i	.	-6
CCOC(=O)C1=CN(Cc2ccco2)S(=O)(=O)NC1c1cccc(OC)c1 (configuration not stated)	0	6	.	.	-7	.	.	6
c1csc(-c2ccn[nH]2)c1	-5	-2	3	3	-22	i	3	1
O=C(/C=C/c1ccccc1Cl)N1CCOCC1	-1	1	-7	-20	-10	i	8	6
O=C(/C=N/NC(=O)c1ccc(Cl)cc1Cl)c1ccccc1	1	1	-10	-6	-16	i	1	-13
CCCCn1c(CCNC(=O)CCC)nc2ccccc21	0	6	3	-9	-24	i	8	27
Cc1ccc(Cn2ccc(NC(=O)c3cc(CC(C)C)on3)n2)cc1	-3	-10	-12	3	-13	i	-8	.
C[C@@H]1CNC(=O)c2c(C(=O)NCC(=O)OC(C)(C)C)ncn21	-3	-3	.	.	-4	.	.	7
Cc1nonc1C(=O)N/N=C/c1cccc(O)c1	-6	3	2	-9	-21	i	-4	-25
O=C(Nc1cccc(S(=O)(=O)N2CCOCC2)c1)c1ccccn1	2	-1	2	8	.	i	2	9
Cn1c(SCC(=O)N2CCCC2)nc2ccccc2c1=O	4	0	-5	.	-14	i	-15	-25
COCc1cccc(-c2csc(C(C)(O)c3ccc(OC)cc3)n2)c1 (configuration not stated)	3	-9	.	.	-9	.	.	15
COC(=O)N/N=C/c1cccs1	0	3	1	6	.	i	-3	1
CC(C)C[C@@H](CNCC(=O)[C@H](C)NC(=O)c1[nH]cnc1C(=O)N[C@@H](C)CN)NC(=O)c1nc[nH]c1C(=O)N[C@@H](CC(=O)O)C(=O)O	1	7	.	.	-7	.	.	20
CC(=O)c1cn(C(=O)c2ccc(Cl)cc2)c2ccccc12	3	4	9	-5	-11	i	-9	-13
COc1cc(/C=C/C2=NC(=O)C(C)(C)O2)ccc1O	.	.	-6	0	.	i	-10	.
Nc1ccc(-c2cnc3ccccc3n2)cc1	-1	-2	.	.	-59	i	.	-223
COc1ccc2c3c(cccc13)OC2=O	-2	4	2	1	.	i	-4	-3
CCOC(=O)c1nn(-c2ccc(F)cc2)c(=O)cc1OCC(=O)Nc1ccc(F)c(F)c1	2	-5	.	11	-4	i	.	.
COc1cc(/C=N/NC(=O)Cc2csc(C)n2)ccc1OCC(C)C	-2	-2	2	14	.	i	12	14
CC(=O)Nc1ccc(S(=O)(=O)Nc2nc3c(s2)CCCC3)cc1	0	-1	6	-4	10	i	-7	.
CC(=O)Nc1ccc(S(=O)(=O)N(Cc2ccco2)CC2CCCO2)cc1 (configuration not stated)	-5	-5	-11	-7	.	i	-5	.
CCC1=C2CC[C@H]3C(=O)N(c4ccccc4)C(=O)[C@H]3[C@H]2[C@@]2(C)C(=NCC3CC3)OC(=O)N2C1=O	1	3	14	-7	-10	i	0	1
CCOc1ccc(/C=N/NC(=O)CC(=O)Nc2ccc(Cl)c(Cl)c2)cc1	-2	-3	-9	1	-8	i	-13	2
CCc1ccc(CNC(=O)CCn2nc(C)c3c(C)n(-c4ccccc4)nc3c2=O)cc1	-7	0	0	-5	-14	i	-11	6
O=C(COc1ccc(Br)cc1)N/N=C1/SCC(=O)N1Cc1ccco1	7	2	3	26	.	i	3	-4
COc1cccc(CNCc2ccc(OC)c3ccccc23)c1OC	-3	1	7	14	-8	i	9	51
COC(=O)c1cc(C(=O)Nc2nc3ccccc3[nH]2)cc([N+](=O)[O-])c1	9	4	-4	-11	-14	i	18	-32
Cc1ccccc1OCC(=O)Nn1c(COc2ccccc2)nc2ccccc2c1=O	-3	-3	9	1	-24	i	10	.
COC(=O)c1cc(=O)c2cccc(OC)c2[nH]1	3	3	2	3	-14	i	8	-57
COc1ccc(S(=O)(=O)N2CCCC2)cc1C(=O)N1CCCCC1	2	3	3	-5	2	i	-13	3
CCN(CC)CCn1c2c(c(SCC(=O)Nc3ccc4c(c3)OCCO4)nc1=O)CCC2	-5	-1	.	2	.	i	.	6
C[C@H](CO)N1C[C@H](C)[C@H](CN(C)C(=O)Nc2cccc3ccccc23)Oc2c(NC(=O)c3ccc(-c4nccs4)cc3)cccc2C1=O	3	-1	.	1	14&-14	.	.	-10[16.7 µM]
CC(C)CN1CC(C)C(=O)N(c2ccccc2)C1=S (configuration not stated)	-1	-2	.	.	-24	.	.	15
CC(C)(C)OC(=O)NCCc1nnc(SCc2ccccc2Cl)o1	8	-2	2	-13	3	i	-1	13
CCOC(=O)c1cnc2cc(Cl)c(OC)cc2c1NCC1CCCO1 (configuration not stated)	0	-10	0	40	-4	.	4	.
CCOC(=O)C1CCN(C(=O)COC(=O)c2ccc([N+](=O)[O-])o2)CC1	-1	4	.	2	9	.	.	-1
O=C(CNCc1ccco1)Nc1ccc(Oc2ccccc2)cc1	0	0	-12	-5	.	i	5	13
Cc1ccc(C(C)C)c(OCC(=O)N/N=C/C2CCCCC2)c1	1	3	19	5	.	i	26	-1
O=C(Oc1c(Br)cc(C(=S)N2CCOCC2)cc1Br)c1ccc(Cl)cc1	8	1	-1	-3	-1	i	1	.
CC(=O)c1ccc(N2CCN(C(=O)CNC(=O)c3ccc(Br)o3)CC2)cc1	-1	0	.	.	-3	.	.	8

(more compounds)
SMILES	MT1-MMP act inh	MT1-MMP act inh RFP	PABP FP inh	CSC inhib	Yeast UUG start	Rce1 inh	eIF4H FP inh	HIV Env fusion	others
COc1cc(C(=O)Nc2cccc(NC(=O)c3cccs3)c2)cc(OC)c1OC	4	-6	-6	-4	-6	i	-6	-3
CCOC(=O)NC1(NC(C)C)Oc2ccccc2O1	-2	-7	-4	18	-4	i	-7	34
CCC[n+]1c(C)sc2c3c(ccc21)CCCC3	-8	-22	41	8	-3	i	4	.
CCOc1ncccc1C(=O)Nc1ccc2nc(C)sc2c1	5	0	4	9	-7	i	-15	5
O=C(Nc1ccc(Cl)cc1)C(Cl)C(=O)c1ccccc1 (configuration not stated)	-5	-4	-3	2	-27	i	-17	7
O=C(c1cc([N+](=O)[O-])cc([N+](=O)[O-])c1)N(c1ccccn1)c1ccccn1	2	7	-8	-2	.	i	-5	32
COc1ccc(C2=NN(C)C(=NCc3ccccc3)SC2)cc1	-3	-1	7	.	-11	i	-1	.
NS(=O)(=O)c1cccc(NC(=O)CN2CCc3ccccc32)c1	-3	3	?	-13	.	i	33	-6
CCCC(=O)Nc1nnc(SCC(=O)N2CCCCC2)s1	2	3	-4	-22	-10	i	-5	2
COc1ccc(C2C(C#N)=C(N)N(c3sc4c(c3C#N)CCCC4)C3=C2C(=O)CC(C)(C)C3)cc1 (configuration not stated)	-52	-1	60	-14	-13	i	31	.	eIF4H FP inh retest=6;PABP FP inh retest=2
Cc1cc(C(=O)NC2CCCc3c2cnn3-c2cccc(C)c2C)c(C)o1 (configuration not stated)	-7	-24	12	23	0	i	1	35
CC(C)CCNC1c2ccccc2C(=O)N1Cc1ccccc1 (configuration not stated)	-2	-3	-7	-3	4	i	-1	10
O=C(Nc1cccc(S(=O)(=O)N2CCOCC2)c1)c1ccc(N2CCCC2=O)cc1	0	-2	.	6	-10	.	.	12
COc1ccccc1N1CCN(S(=O)(=O)c2cn(C)cn2)CC1	-1	2	7	-12	-2	i	3	0
COc1ccc(NS(=O)CCCc2ccccc2)cc1 (configuration not stated)	6	10	.	.	-37	.	.	4
O=C1C(Cc2cccc([N+](=O)[O-])c2)SC(=Nc2ccccc2)N1c1ccccc1 (configuration not stated)	-5	-6	-2	.	-32	i	-7	-13
CCCN1CCN(C(=S)NCc2ccc(Cl)cc2)CC1	2	2	-2	8	.	i	1	0
O=C(NCc1ccccn1)C(F)(F)C(F)(F)C(=O)NCc1ccccn1	-4	5	-4	5	-15	i	0	-64
Cc1ccc(C2C(C#N)=C(N)Oc3n[nH]c(-c4cccnc4)c32)o1 (configuration not stated)	5	2	?	-5	-11	i	-3	13
c1ccc(OCc2cc(-c3ccccc3)no2)cc1	1	0	5	4	.	i	-4	-74
CC(C)OCCCNC1=C(Cl)C(=O)c2ccccc2C1=O	7	2	3	7	-4	i	-2	-10

This is a subset. The share of hits here may be higher or lower than overall.
